# B2AR ag: agonists of human beta-2 adrenergic receptor inducing internalization. Am2.2-beta2AR cells, FAP receptor internalization, flow cytometry; reference of the scale not given here. hit rate 0.43% among 340,000. response, % (test concentration not listed);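 active = response above a set limit, near 3 SD of response in nonfluorescent compounds, cut at about 42% in these data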;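 note: stock transfer was 100 nL into about 11 µL; a reference agonist was the positive control; negative values mostly stem from fluorescent compounds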
# Target sequence (P07550 whole entry, looked up): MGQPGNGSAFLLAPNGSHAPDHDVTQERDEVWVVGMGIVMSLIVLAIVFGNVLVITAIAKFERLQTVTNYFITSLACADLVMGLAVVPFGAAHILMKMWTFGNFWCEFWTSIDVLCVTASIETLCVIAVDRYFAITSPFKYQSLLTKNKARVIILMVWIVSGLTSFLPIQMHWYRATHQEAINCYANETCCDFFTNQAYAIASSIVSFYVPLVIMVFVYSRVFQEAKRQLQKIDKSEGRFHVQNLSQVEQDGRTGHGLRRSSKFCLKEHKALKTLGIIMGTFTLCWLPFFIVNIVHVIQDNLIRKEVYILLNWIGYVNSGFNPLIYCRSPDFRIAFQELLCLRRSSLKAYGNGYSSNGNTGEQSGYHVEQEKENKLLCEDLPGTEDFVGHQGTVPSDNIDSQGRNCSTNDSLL
# T cruzi inh: T. cruzi replication inhibition; inhibition, % (concentration not given with the values); AID 1885; hit rate 1.4% among 300,000; T. cruzi beta-gal in NIH3T3, luminescence, 90 h;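 active = mean inhibition across valid replicates above about 55%, limit read from the data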;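 note: signal also drops with host cell toxicity which is not excluded here; 0% = plate median of DMSO wells and 100% = zero luminescence signal; higher percent means less beta-gal luminescence so fewer parasites; stock transfer was 50 nL into about 50 µL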
# Calb FLC: affects C. albicans growth with fluconazole | AID 1979 | growth inhibition, % (no concentration beside the values) | hit rate 0.57% among 300,000 | C. albicans CaCi-2 (fluconazole-resistant clinical isolate) + fluconazole, Alamar Blue growth, 48 h;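 active = most replicates above 75%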;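 note: all wells also contain fluconazole at 8 µg/ml as a sub-toxic cotreatment; 0% = median of DMSO wells and 100% = median of geldanamycin control wells; wells of about 8 µL received 7.5 nL stock; the first replicate is given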
# rRNA inh HTS: inhibits bacterial ribosomal RNA function over humanized ribosomes | AID 720706 | E. coli WT GFP vs humanized-ribosome RFP mutants, fluorescence, 24 h; stronger effect = lower value; DMSO median 0, no signal -100 | hit rate 1.6% among 350,000 | GFP signal change (wild-type ribosome), % (concentration not given with the values);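 active = significant combined selectivity score with lowered wild-type GFP, culture density cut under 30%, mutant RFP and density less affected; inactive = any of these conditions unmet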; note: one replicate is shown; some compounds called inactive have numbers as strong as hits
# LANA-H2A inh: blocks KSHV LANA binding to histone H2A/H2B; cell-free LANA-H2A/H2B peptide, fluorescence polarization; inhibition, % (test concentration not listed); hit rate 0.6% among 320,000; in the data active = inhibition mostly above about 10%, no sharp cut-off; inactive = mostly below about 6.7%;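 note: stock transfer was 7.5 nL into about 10 µL; 0% = median of vehicle wells and 100% = median of positive control wells; one replicate is shown; the record names a cut of 25% in any replicate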
# Bfl-1 A1 inh: inhibitors of the anti-apoptotic protein A1, read as caspase activation | caspase activation, % (test concentration not listed) | MEF A1-2A-BIM cells, Caspase-Glo 3/7 luminescence, 3 h; percent of clofoctol response, vehicle zero | hit rate 0.066% among 330,000 | AID 2462;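 active = over half of replicate activation scores above 10%, or exactly half above 10 with the replicate mean above 10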;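 note: wells of about 30 µL received 50 nL stock; many hits fall short of the cut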
# ALR H2O2 inh: inhibitors of human sulfhydryl oxidase ALR | purified ALR, DTT oxidation, H2O2 HRP-luminol luminescence | inhibition, % (no concentration beside the values) | P55789 | hit rate 3.8% among 290,000;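 active = mean and each replicate at 75% or more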;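 note: stock transfer was 7.5 nL into about 7.5 µL; 0% = neutral wells and 100% = wells with inactivated enzyme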
# Target sequence (P55789 whole entry, looked up): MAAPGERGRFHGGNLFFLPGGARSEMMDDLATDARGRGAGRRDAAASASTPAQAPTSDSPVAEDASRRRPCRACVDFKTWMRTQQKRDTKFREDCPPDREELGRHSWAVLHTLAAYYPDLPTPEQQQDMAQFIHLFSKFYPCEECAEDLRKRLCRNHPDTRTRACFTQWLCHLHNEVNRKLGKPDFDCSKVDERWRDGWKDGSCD
# Beta cell apopt: blocks beta cell apoptosis; INS-1E cytokine-induced death, ATP luminescence, 48 h; percent of positive-control rescue, neutral wells zero; protection from apoptosis, % (concentration not given with the values); hit rate 0.8% among 300,000; AID 435005;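 active = all replicates at 75% or more, or half of them and the mean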;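 note: 0% = cytokine-treated negative control wells and 100% = positive control rescue; higher means more ATP so stronger rescue from cytokine killing; wells of about 40 µL received 100 nL stock; the first replicate is given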
# rRNA inh HTS OD600: also measured in rRNA inh HTS; calls as there; OD600 change, %; measured here: OD600 growth;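 optical density of the mix in the first replicate; 0 = DMSO median and -100 = no signal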
# rRNA inh HTS RFP: also measured in rRNA inh HTS; calls as there; RFP signal change, %; measured here: RFP humanized mutant strains;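 first replicate; 0 = DMSO median and -100 = no signal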
# An asterisk follows results filed as active; nt = no result given. This is a subset, so the mix of outcomes need not match the whole.
SMILES,B2AR ag,T cruzi inh,Calb FLC,rRNA inh HTS,rRNA inh HTS OD600,rRNA inh HTS RFP,LANA-H2A inh,Bfl-1 A1 inh,ALR H2O2 inh,Beta cell apopt
Cn1cc(C(=O)c2ccc(Cl)cc2Cl)cc1C(=O)N/N=C(\N)COc1ccc(Cl)cc1Cl,11,14,-5,nt,nt,nt,-4.1,-0.3,-9,19
CCn1cc(C(=O)NCCC(C)C)c(=O)c2cc(F)c(N3CCN(C)CC3)cc21,8,18,-12,-48,-75,-15,0.9,-1.7,-27,-5
O=S(=O)(Nc1ccc(F)cc1)c1ccc(NC(=S)Nc2ccccc2)cc1,2,-16,-3,nt,nt,nt,0.6,1.9,-1,-6
Cc1cc([N+](=O)[O-])nn1CC(=O)NC1CCCCC1,-2,-15,0,-1,7,0.5,19*,0.4,nt,1
COc1ccc(OC)c(-c2csc(NC(=O)c3ccc4c(c3)OCO4)n2)c1,8,16,3,-4,-3,5.0,-4.3,0.4,2,-1
O=C(Nc1cc(Cl)ccc1N1CCOCC1)c1ccncc1,0,nt,nt,6,-4,-1.9,10,1.5,nt,-6
COc1ccc(NC(=O)CN2CCN(S(=O)(=O)c3ccc(Cl)cc3)CC2)cc1Cl,5,6,1,nt,nt,nt,nt,0.2,nt,-3
NS(=O)(=O)c1ccc(CCNC(=O)C2CCC(Cn3c(=S)[nH]c4ccccc4c3=O)CC2)cc1 (stereo not drawn),-12,6,-12,16,13,8.2,1.6,1.5,-12,4
Oc1ccc(-c2cc(-c3ccc(O)cc3)nc(-c3ccccc3)n2)cc1,13,55*,-1,-51,-69,6.4,-2.3,-0.3,48,-1
COc1ccc(C(C(=O)NCc2ccccc2)N(Cc2ccco2)C(=O)c2cnccn2)cc1 (stereo not drawn),0,-8,-23,4,9,0.4,0.2,-0.1,3,-9
Cc1ccc2c(c1)[C@H]1[C@H](CO2)[C@H](c2ccccc2)[C@]2(C)C(=O)NCC(=O)N12,-3,nt,nt,-5,1,-9.9,3.5,-0.2,-2,-3
COc1ccc(OCCSc2nc3nc(C)cc(C)n3n2)cc1,-35,38,-8,-23,-24,-3.5,-8.8,-2.6,3,-2
Cc1cc(Cl)ccc1OCCCC(=O)OCC(N)=O,-8,-17,8,-18*,-3.6*,2.8*,-2.2,-0.7,-12,1
Cc1ccc2c(c1)c(N=NC(N)=S)c(O)n2Cc1ccccc1,-9,14,-44,4,7,5.3,4.7,0.3,3,3
CCCc1ccc(S(=O)(=O)N2CCN(C(C)C(=O)NCc3ccc(OC)cc3)CC2)cc1 (stereo not drawn),-4,nt,nt,12,-27,-0.2,-0.8,0.4,-37,-3
COc1cc(/C=C/C(=O)Nc2ccc(OC)c(S(=O)(=O)N3CCOCC3)c2)ccc1OC(F)F,16,nt,nt,-5,3,-0.6,1.5,0.7,13,11
CCOc1ccc(NC(=O)C2CCC(CNc3c(N4CCCCC4)c(=O)c3=O)CC2)cc1 (stereo not drawn),-4,-3,-1,11,7,-1.6,-0.1,1.0,-1,-6
COc1cc(-c2noc(C)c2C#CCO)cc(OC)c1OC,-1,-17,4,-9,3,-8.8,-0.8,0.9,3,-6
Cc1cc(C)cc(NC(=O)C2CCCN(S(=O)(=O)c3c(C)noc3C)C2)c1 (stereo not drawn),10,22,4,17,12,1.0,3.5,1.0,-2,-1
Cc1cc(C)n(-c2nc(C)nc(N)n2)n1,-1,-3,2,nt,nt,nt,0.8,1.1,-1,-1

# Single values from the list:
# Result of CCn1cc(C(=O)NCCC(C)C)c(=O)c2cc(F)c(N3CCN(C)CC3)cc21 under T cruzi inh: 18
# Result of Cc1ccc2c(c1)c(N=NC(N)=S)c(O)n2Cc1ccccc1 under Calb FLC: -44

# Going on with the list:
SMILES,B2AR ag,T cruzi inh,Calb FLC,rRNA inh HTS,rRNA inh HTS OD600,rRNA inh HTS RFP,LANA-H2A inh,Bfl-1 A1 inh,ALR H2O2 inh,Beta cell apopt
Cc1ccc(Cn2cnc3ccccc32)cc1,4,50,0,-25*,-3.5*,1.9*,0.5,0.3,-5,7
CCc1nc(SCc2ccc(F)cc2)n[nH]1,-5,6,3,6,-1,2.2,-1.6,0.6,-6,-10
CO[C@H]1/C=C/O[C@@]2(C)Oc3c(C)c(O)c4c(O)c(c(C=NN5CCN(C)CC5)c(O)c4c3C2=O)NC(=O)/C(C)=C\C=C\[C@H](C)[C@H](O)[C@@H](C)[C@@H](O)[C@@H](C)[C@H](OC(C)=O)[C@@H]1C,0,nt,nt,nt,nt,nt,1.4,2.0,-46,-1
Cc1cnc(C(=O)Nc2ccc(OC(F)(F)F)cc2)cn1,4,-17,-6,8,4,-1.2,5.3,-0.2,-8,10
NS(=O)(=O)c1ccc(CNC(=O)c2ccc3c(=O)n4c(nc3c2)CCC4)cc1,-5,4,-2,1,-2,-3.6,0.0,0.2,1,-3
C=C(Br)CN1[C@@H](Cc2ccccc2)[C@H](O)[C@@]23C=C[C@@H](C[C@@H]2S1(=O)=O)O3,0,nt,nt,-7,-3,-14,-2.4,0.4,1,3
O=C(Cn1cnc2ccccc2c1=O)NNC(=O)c1ccccc1,9,-6,-11,16,5,0.9,4.1,0.0,nt,-2
CC1CCc2c(sc(NC(=O)CSc3ncn[nH]3)c2C#N)C1 (stereo not drawn),0,-1,1,-19*,1.5*,2.5*,2.1,-3.2,52,-19
CN1C(=O)C2C(c3ccc(N(C)C)cc3)=NN(Cc3ccccc3)C2C1=O (stereo not drawn),-1,-8,-28,-15,-6,-1.8,-2.9,0.1,99*,0
O=C(NC1CCCCCC1)c1cccc(S(=O)(=O)N2CCOCC2)c1,0,nt,nt,1,18,-3.2,4.5,3.0,2,2
O=C(NCCCN1CCCC1=O)c1nnc(Cc2c(F)cccc2Cl)o1,5,1,10,nt,nt,nt,-3.8,-1.4,-1,-6
O=C(N/N=C/c1ccc(N2CCOCC2)cc1)c1ccccn1,1,-4,22,15,-7,2.6,5.0,-6.2,-2,8
CC1CCCC(C)N1C(=O)CSc1nnc(COc2ccc(F)cc2)o1 (stereo not drawn),-12,21,-3,-2,1,-0.3,5.2,-0.2,nt,4
CCC(C)C(=O)Nc1ccc(OC)cc1[N+](=O)[O-] (stereo not drawn),-3,-8,-9,5,2,-1.6,4.9,0.5,-7,0
Cc1cc(NS(=O)(=O)c2c(C)[nH]c(=O)[nH]c2=O)ccc1Br,-7,0,5,3,38,11,-2.5,0.4,13,-10
O=C(/C=C/Nc1cccc(C(F)(F)F)c1)C(F)(F)F,2,nt,nt,-18,-17,12,6.7,-0.5,-12,-5
CCC(C)NS(=O)(=O)c1ccc(OCC(=O)NCC2CCCO2)cc1 (stereo not drawn),5,-2,3,nt,nt,nt,-1.3,0.0,-3,-2
COc1ccccc1NCCC(=O)O,4,-19,-5,1,1,1.0,0.0,1.0,nt,-8
CCOC(=O)c1cccc(NC(=O)c2ccc(-n3cnnn3)cc2)c1,4,nt,nt,12,26,-1.8,5.7,-0.1,-5,1
Cc1cccc(N2CCN(C(=O)NC(C)c3ccc(F)c(F)c3)CC2)c1C (stereo not drawn),4,9,4,0,2,0.1,6.9,0.9,nt,7

# Reformatted: results already given
smiles | B2AR ag | T cruzi inh | Calb FLC | rRNA inh HTS | rRNA inh HTS OD600 | rRNA inh HTS RFP | LANA-H2A inh | Bfl-1 A1 inh | ALR H2O2 inh | Beta cell apopt
O=C(N/N=C/c1ccc(N2CCOCC2)cc1)c1ccccn1 | 1 | -4 | 22 | 15 | -7 | 2.6 | 5.0 | -6.2 | -2 | 8
CC1CCCC(C)N1C(=O)CSc1nnc(COc2ccc(F)cc2)o1 (stereo not drawn) | -12 | 21 | -3 | -2 | 1 | -0.3 | 5.2 | -0.2 | nt | 4
CCC(C)C(=O)Nc1ccc(OC)cc1[N+](=O)[O-] (stereo not drawn) | -3 | -8 | -9 | 5 | 2 | -1.6 | 4.9 | 0.5 | -7 | 0
Cc1cc(NS(=O)(=O)c2c(C)[nH]c(=O)[nH]c2=O)ccc1Br | -7 | 0 | 5 | 3 | 38 | 11 | -2.5 | 0.4 | 13 | -10
O=C(/C=C/Nc1cccc(C(F)(F)F)c1)C(F)(F)F | 2 | nt | nt | -18 | -17 | 12 | 6.7 | -0.5 | -12 | -5

# Further compounds follow:
SMILES,B2AR ag,T cruzi inh,Calb FLC,rRNA inh HTS,rRNA inh HTS OD600,rRNA inh HTS RFP,LANA-H2A inh,Bfl-1 A1 inh,ALR H2O2 inh,Beta cell apopt
COc1cc(/C=C/C(=O)Nc2cccnc2)cc(OC)c1OC,-4,-2,76*,-8,-2,-3.9,6.3,-1.0,6,3
CC(C)CSc1n[nH]c(=S)s1,3,8,13,-6,-12,-0.7,-1.8,-0.5,11,-2
C=C(C)CNC(=S)N1CCNC(=O)C1CC(=O)OC (stereo not drawn),-8,6,0,nt,nt,nt,1.9,0.6,21,nt
O=C(NC1CCCCC1)N(CCN1CCCC1)Cc1cc2cc3c(cc2[nH]c1=O)OCCO3,-1,-2,6,nt,nt,nt,-3.8,0.1,-12,-9
COc1ccc(NC(=O)COC(=O)c2ccc(OCc3c(C)noc3C)cc2)cc1OC,-1,-5,4,nt,nt,nt,0.6,1.2,-3,-10
COc1ccccc1CNC(=O)COC(=O)c1ccc(S(=O)(=O)N2CCCCC2)cc1,12,nt,nt,10,17,-0.4,8.2,0.5,nt,1
CCc1nnc(NC(=O)CCC(=O)NC2CCCCCC2)s1,-1,4,-3,4,9,-2.0,-0.3,-0.7,-1,1
O=C(OCCO)c1cc(Cl)c(C(=O)OCCO)cc1Cl,4,-17,-2,nt,nt,nt,-2.5,-1.2,-6,-3
COc1ccc2c(c1)CC[C@@H]1[C@@H]2CC[C@]2(C)[C@@H](C(=O)O)C[C@@H]12,3,-6,-6,-8,-18,14,-3.5,2.1,nt,2
CCc1ccc(/C=N/NC(=O)Cc2cccn2C)cc1,2,-1,-1,2,12,2.8,-3.6,-1.4,96*,-1
CC(=O)N1CCN(c2ccc(NCc3ccc(C)s3)cc2)CC1,-1,-7,-2,0,9,19,-1.8,-0.2,99*,7
CN1CCN(S(=O)(=O)c2ccc(NC(=O)C3CCCO3)cc2)CC1 (stereo not drawn),4,-8,-3,nt,nt,nt,-1.8,1.0,-2,-5
COc1ccc(-n2nnc3c(=O)n(C/C=C/c4ccccc4)cnc32)cc1,-4,13,38,nt,nt,nt,-20,-0.5,1,-10
CC(C)Nc1nnc(SC(C)C(=O)Nc2ccc(N3CCOCC3)cc2)s1 (stereo not drawn),20,nt,nt,1,9,-1.7,0.3,1.4,32,0
COc1ccc(CNC(=O)C(OC(C)=O)c2ccccn2)cc1 (stereo not drawn),-3,-20,2,nt,nt,nt,-5.1,1.1,3,-7
CC(C)N(Cc1ccccc1)C(=S)NC(=O)C1(C)CC1(Cl)Cl (stereo not drawn),-6,-7,-9,-49,-58,-20,2.8,1.0,64,2
O=C(CCN1CCCCC1)Nc1ccc(Br)cc1,0,-1,-3,nt,nt,nt,-2.3,0.5,-7,-2

# Screening results (PubChem BioAssay)
